High-throughput results: PubChem, ICCB-Longwood Screening Facility, Harvard Medical School
HCMV UL50-53 inh = cytomegalovirus nuclear egress complex inhibition. HTRF UL50-UL53 interaction, normalized percent inhibition. inhibition, % (no concentration beside the values). 0.15% of 190,000 active. AID 1918969;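 active = both replicates at 50% or more, plus weaker picks with an unusually low signal ratio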;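 note: stock transfer was 100 nL into about 20 µL; 0% = negative control wells and 100% = wells with untagged competitor protein; inactives centre near -12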
GIV Gai3 FP = inhibitors of GIV GBA-motif binding to rat Galpha-i3 | P08753 | Galpha-i3/FITC-GIV peptide fluorescence polarization, 90 min; stronger effect = lower value; scaled: aluminum fluoride 0%, vehicle 100% | percent of control (FP), % (concentration not given with the values) | 0.42% of 210,000 active;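 active = replicate mean at 85% of control or lower, very high polarization wells dropped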;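 note: wells of about 15 µL received 100 nL stock; the first replicate is given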
Target sequence (P08753 whole entry, looked up): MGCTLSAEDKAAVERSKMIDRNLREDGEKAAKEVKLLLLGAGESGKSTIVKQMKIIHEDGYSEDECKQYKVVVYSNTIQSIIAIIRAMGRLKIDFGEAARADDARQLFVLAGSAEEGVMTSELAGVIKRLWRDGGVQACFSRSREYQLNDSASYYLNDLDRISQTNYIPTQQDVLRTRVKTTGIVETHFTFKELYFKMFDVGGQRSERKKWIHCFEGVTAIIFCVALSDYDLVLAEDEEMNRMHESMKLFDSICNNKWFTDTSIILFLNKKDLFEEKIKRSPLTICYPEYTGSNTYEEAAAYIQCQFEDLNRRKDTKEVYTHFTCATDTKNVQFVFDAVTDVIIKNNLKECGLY
Sa growth inh = S. aureus growth inhibition; S. aureus RN4220 growth, OD600, 20 h, 42 °C; stronger effect = lower value; relative growth, % (concentration not given with the values); 0.53% of 170,000 active; AID 720641;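 active = growth at 42 °C up to 50% and 20 or more points under that at 30 °C, or under 10% at both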;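 note: 300 nL library stock went into each well; scaled to the means of positive and negative controls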
Sa growth inh second temp = further read-out of Sa growth inh, marked with its call; relative growth, %; measured here: growth at 30 °C;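 optical density after 20 h as mean of two plates; 100% = untreated growth and lower means inhibition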
Active calls of the source: *; · = not tested or not shown; & = joins results of further samples.

1. C=CCn1c(N)cc(=O)nc1SC(C)C(=O)Nc1cccc(Cl)c1 (configuration not stated)
2. CC1=C(C(=O)OC2CCCC2C)C(c2cc3c(cc2Br)OCO3)NC(=O)N1 (configuration not stated)
3. CC(C)c1ccc(-c2nnc(N)s2)cc1
4. CCC(=O)Oc1oc(-c2ccccc2)nc1C=Nc1ccccc1C
5. CCN(Cc1nc2cc(OC)c(OC)cc2c(=O)[nH]1)C(=O)CC1CC2CCC1C2 (configuration not stated)
6. COc1ccc(-c2nnn(CC(=O)N(CC(=O)NCc3ccccc3)c3ccc4c(c3)OCCO4)n2)cc1OC
7. C1=C[C@H]2c3ccccc3N[C@@H](c3cccc(OC4CSC4)c3)[C@H]2C1
8. CCCSc1ccc2nc(NC(=O)OC)[nH]c2c1

assay / entry,1,2,3,4,5,6,7,8
HCMV UL50-53 inh,2,-9,-13,-3,3,-4,·,-32&-46&-7&-28&-10&-30
GIV Gai3 FP,108,104,·,·,·,107,132,102&101
Sa growth inh,94,·,96,97,71,117,88,91&94
Sa growth inh second temp,97,·,73,90,89,104,93,88&93

9. Fc1cccc(Nc2c3c(nc4ncnn24)CCCC3)c1
10. CSc1ncc(Cl)c(C(=O)N(Cc2ccc(N(C)C)cc2)Cc2ccco2)n1
11. CCOC(=O)c1c(NC(=O)c2ccc(N3C(=O)C4C5C=CC(C5)C4C3=O)cc2)sc2c1CCCC2 (configuration not stated)
12. CCOC(=O)C1=CN(c2ccc(OCC)cc2)C=C(C(=O)OCC)C1c1cccc(OC)c1
13. CCOc1cc2[nH]c(=O)n(CCCCC(=O)N3CCN(Cc4ccccc4)CC3)c(=O)c2cc1OCC
14. O=C(c1ccno1)N1CCN(Cc2ccccc2)CC1
15. O=C(OCc1cc(=O)oc2cc(O)ccc12)c1cnccn1
16. O=S(=O)(c1ccc(-c2cc(C(F)(F)F)on2)s1)N1CCN(c2ccccc2)CC1

assay / entry,9,10,11,12,13,14,15,16
HCMV UL50-53 inh,-4,-5,-13,·,10,3,-34,·
GIV Gai3 FP,111,103,105,102,105,·,·,103
Sa growth inh,·,111,·,88,100,91,89,106
Sa growth inh second temp,·,76,·,103,103,93,96,92

17. O=C(CSc1nnc(Cc2ccccc2)o1)N1CCNC1=O
18. O=C(Nc1ccc2oc(-c3cccnc3)nc2c1)c1ccc(-c2cccc(OC(F)(F)F)c2)o1
19. COc1ccc(-c2nnc3sc(-c4ccncc4)nn23)cc1OC
20. c1cc2c(cc1CN1CCN(C3CCCCCC3)CC1)OCO2
21. Nc1ccc(N=Cc2ccc3c(c2)OCCO3)cc1
22. O=C(Cn1cnnn1)N(CCc1ccccc1)c1nc(-c2ccccc2)cs1
23. C#CC(C)(C)NC(=O)c1snnc1C
24. COc1ccc(-c2cn3c4ccccc4nc3n2CCO)cc1

assay / entry,17,18,19,20,21,22,23,24
HCMV UL50-53 inh,-22,-22,-17,-13,-31,-15,-28,1
GIV Gai3 FP,·,107,106,·,·,·,109,·
Sa growth inh,85,93,·,101,99,87,92,89
Sa growth inh second temp,88,86,·,85,80,93,87,87

Quoted at random: 6 records from the list.
19. COc1ccc(-c2nnc3sc(-c4ccncc4)nn23)cc1OC
18. O=C(Nc1ccc2oc(-c3cccnc3)nc2c1)c1ccc(-c2cccc(OC(F)(F)F)c2)o1
17. O=C(CSc1nnc(Cc2ccccc2)o1)N1CCNC1=O
22. O=C(Cn1cnnn1)N(CCc1ccccc1)c1nc(-c2ccccc2)cs1
23. C#CC(C)(C)NC(=O)c1snnc1C
21. Nc1ccc(N=Cc2ccc3c(c2)OCCO3)cc1

assay / entry,19,18,17,22,23,21
HCMV UL50-53 inh,-17,-22,-22,-15,-28,-31
GIV Gai3 FP,106,107,·,·,109,·
Sa growth inh,·,93,85,87,92,99
Sa growth inh second temp,·,86,88,93,87,80

Continued.
25. O=C(NCC1CCCCC1)c1n[nH]c(=O)c2ccccc12
26. CCC(=O)c1ccc(OCC(=O)NCCOc2ccccc2)cc1
27. COc1ccccc1NCC(=O)NN=C1CCN(Cc2ccccc2)CC1
28. COc1ccccc1Cn1cccc1C1=NC(C(C)C)CO1 (configuration not stated)
29. N#Cc1cccc(CS(=O)(=O)c2cccs2)c1
30. COc1ccc(NC(=O)Cn2cnc3ccccc3c2=O)cc1
31. CCc1ccc(-c2nn(-c3ccc(OC)cc3)c3c2cnc2ccc(OC)cc23)cc1
32. CN(C)S(=O)(=O)c1cccc(COC(=O)c2ccc3c(c2)OCO3)c1

assay / entry,25,26,27,28,29,30,31,32
HCMV UL50-53 inh,-10,10,-17,-13,-6,5,8,-20
GIV Gai3 FP,96,·,·,98,100,·,101,·
Sa growth inh,89,85,87,82,89,106,101,80
Sa growth inh second temp,81,94,86,75,86,100,92,90

33. NC(=O)C1CN(C(=O)CSc2nnc(-c3cccnc3)n2-c2ccccc2)c2ccccc2O1 (configuration not stated)
34. CC(C)CN(CC(C)C)c1nnc(NC(=O)Nc2cccc(C(F)(F)F)c2)s1
35. COc1ccc(S(=O)(=O)N2Cc3ccccc3CC2C(=O)N2CCCCCC2)cc1OC (configuration not stated)
36. COc1cc(NC(=O)CCN2CCN(c3ccccc3)CC2)cc(OC)c1
37. CN(C)c1ccc(C(CNS(=O)(=O)c2ccc(F)cc2F)N2CCOCC2)cc1 (configuration not stated)
38. COc1ccc(-n2nc(C(=O)N(C)c3cc(Cl)ccc3OC)c3c4ccccc4n(C)c3c2=O)cc1
39. O=C(CCN1CCN(C2c3ccccc3-c3ccccc32)CC1)Nc1cccc(C(F)(F)F)c1
40. Cc1ccc(C)c(CN2C(=O)c3ccccc3S(=O)(=O)c3ccc(C(=O)N(C)C4CCCCC4)cc32)c1

assay / entry,33,34,35,36,37,38,39,40
HCMV UL50-53 inh,-16,-4,1,17,·,-22,·,-2
GIV Gai3 FP,·,102,103,102,97,102,105,111
Sa growth inh,70,105,90,111,93,94,51,110
Sa growth inh second temp,91,85,88,100,92,89,37,99

41. Cc1cccc(-c2nc3sc(N(C)CC(=O)N4CCN(c5ccccn5)CC4)nn3c2NC(C)(C)C)c1
42. CC1(CCC(=O)O)NNC(=S)NN1
43. COc1ccccc1OCCn1c(=O)c2cc3c(=O)n(CCOc4ccccc4OC)c(=O)c3cc2c1=O
44. CC1CCCCN1CCNS(=O)(=O)c1ccc2c(c1)n(C)c(=O)c(=O)n2C (configuration not stated)
45. COc1cc(NC(=O)c2nnn(-c3cccc(Cl)c3C)c2N)cc(OC)c1
46. O=C(Cc1ccc(-c2ccccc2)cc1)NCc1ccco1
47. C/C(=C\C(=O)NC1CC(C)(C)NC(C)(C)C1)NC1CC(C)(C)NC(C)(C)C1
48. CC(C)c1ccccc1C=NCC(=O)O

assay / entry,41,42,43,44,45,46,47,48
HCMV UL50-53 inh,-28,-21,7,-2,-25,-12,-3,-9
GIV Gai3 FP,102,99,102,105,101,·,99,99
Sa growth inh,·,104,96,90,·,88,96,103
Sa growth inh second temp,·,67,92,97,·,94,115,79

49. CCC(=O)Nc1cccc(NC(=O)CSc2nnnn2C(C)C)c1
50. Cc1ccc2oc(C(=O)NCC(c3ccc(C(C)(C)C)cc3)N(C)C)cc(=O)c2c1 (configuration not stated)
51. Cc1[nH]c(C)c(S(=O)(=O)NC2CCCc3ccccc32)c1C(=O)N1CCCC1 (configuration not stated)
52. O=C(O)CC1SC(=O)N(c2ccccc2)C1=O (configuration not stated)
53. CN(C)C(=O)COC(=O)c1ccccc1Sc1ccccc1C#N
54. O=C(c1cccs1)N1CCC(Cc2ccccc2)CC1
55. O=C(C(Cc1ccccc1)n1cccc1)N(CCc1ccccc1)Cc1ccccc1 (configuration not stated)
56. Cc1ccc(CNC(=O)NCC(c2cccnc2)c2c[nH]c3ccccc23)cc1 (configuration not stated)

assay / entry,49,50,51,52,53,54,55,56
HCMV UL50-53 inh,-2,-65,-18,-9,-17,-22,·,-7
GIV Gai3 FP,101,110,104,103,·,103,99,99
Sa growth inh,94,·,102,109,81,100,97,·
Sa growth inh second temp,87,·,81,114,91,87,78,·

57. Cc1c(C2CCN(S(=O)(=O)c3ccc4c(c3)CC(=O)N4C)CC2)c2ccccc2n1Cc1ccc(F)cc1
58. Clc1ccc(Cn2cc(/C=N/n3cnnc3)c3ccccc32)c(Cl)c1
59. O=C(O)Cc1ccc(NCc2ccc(Br)cc2)cc1
60. Cc1ccc2cc3c(nc2c1)N(C(=O)C(C)C)CC3
61. Fc1ccc(C(c2nnc(-c3ccccc3)o2)N2CCN(c3cccc(Cl)c3)CC2)cc1 (configuration not stated)
62. COc1ccc(CCNS(=O)(=O)c2ccc(N3CCCCS3(=O)=O)cc2)cc1OC
63. CCCc1c(C(=O)O)cnn1-c1cc(Cl)cc(Cl)c1
64. Cc1ccccc1C(=O)NCCc1sc(-c2ccc(Cl)cc2)nc1C

assay / entry,57,58,59,60,61,62,63,64
HCMV UL50-53 inh,-1,-20,·,-1,·,·,-2,·
GIV Gai3 FP,106,104,102,104,101,101,100,109
Sa growth inh,·,135,77,·,96,97,109,104
Sa growth inh second temp,·,99,89,·,90,87,112,101

65. CCc1cccc(C)c1NC(=O)Cn1cc2c(n1)CCCC2
66. Cc1cc(C(=O)COC(=O)c2ccc(-n3cnnn3)cc2)c(C)n1-c1cccc(F)c1
67. COc1ccc(COC(=O)C2=C(C)NC(=O)NC2c2ccccc2OC(C)C)cc1 (configuration not stated)
68. Cc1cc(NC(=O)/C=C/c2ccc(F)cc2)no1
69. Cc1cc(C(C)(C)C)ccc1OCC(O)CNC1CCC(O)CC1 (configuration not stated)
70. CCOC(=O)c1sc2nc(C)nc(N3CCN(c4ccccn4)CC3)c2c1C
71. COc1cc(C(=O)OCC(=O)Nc2ccc(C)cc2)cc(OC)c1OC
72. CCOc1ccc(CCNC(=O)C2CCCN(c3nnc(C)c4c(C)n(-c5ccccc5)nc34)C2)cc1 (configuration not stated)

assay / entry,65,66,67,68,69,70,71,72
HCMV UL50-53 inh,-7,-9,-9,·,-14,-17,·,·
GIV Gai3 FP,101,·,104,98,·,105,95,108
Sa growth inh,100,89,·,124,117,·,81,89
Sa growth inh second temp,90,96,·,97,90,·,83,87

73. Cn1cccc1C1CCCN1CC(=O)NC(=O)NCc1ccccc1 (configuration not stated)
74. CCOC(=O)OC(C)OC(=O)C1N2C(=O)C(NC(=O)[C@H](N)c3ccccc3)C2SC1(C)C (some centres not stated)
75. Cc1cc(N2CCN(c3ccccn3)CC2)n2nc(-c3ccccc3)c(C)c2n1
76. CCOC(=O)c1c(C)nc2cc(C)ccn12
77. CC(=O)Nc1ccc(NC(=O)CSc2nccc(=O)[nH]2)cc1
78. CCOC(=O)c1oc2ccccc2c1CN1c2cccc3cccc(c23)S1(=O)=O
79. COC(=O)c1cc2cccc(OC)c2cc1OC
80. COc1ccc(-c2c(C(F)(F)F)oc3c(CN4CCCCC4)c(O)ccc3c2=O)cc1OC

assay / entry,73,74,75,76,77,78,79,80
HCMV UL50-53 inh,-1,-42,-11,-28,1,-27,-44,-27
GIV Gai3 FP,·,·,111,103,96,·,103,100
Sa growth inh,103,-1.1*,·,88,97,119,90,·
Sa growth inh second temp,100,-0.8*,·,79,107,103,91,·

81. CCC(=O)c1cc2ccccc2oc1=O
82. O=S(=O)(Nc1nccs1)c1ccccc1
83. O=S1(=O)CCCCN1c1ccc(S(=O)(=O)N2CCCCC2)cc1
84. CCN(CCN(C)C)c1ncc(NS(=O)(=O)c2cc(C)c(C)cc2C)cc1C(=O)O
85. NC(CN1CCOCC1)c1ccccc1 (configuration not stated)
86. COc1ccccc1CC1(C)NC(=O)NC1=O (configuration not stated)
87. O=C(CCn1cccc1)NCC1COc2ccccc2O1 (configuration not stated)
88. COc1cc(C2C(=O)N(C3CCCCC3)CC(=O)N2C2CCCCC2)ccc1OC(C)C (configuration not stated)

assay / entry,81,82,83,84,85,86,87,88
HCMV UL50-53 inh,·,-21,-9,-42,0,-27,·,·
GIV Gai3 FP,120,·,103,58*,101,·,107,101
Sa growth inh,101,101,106,·,103,93,99,86
Sa growth inh second temp,87,79,88,·,83,95,91,92

89. O=C(Cn1[nH]c(=O)c2ccccc2c1=O)NCC(c1ccco1)N1CCCC1 (configuration not stated)
90. CCOC(=O)c1c(NC(=O)CCCOc2ccc(Cl)cc2)sc2c1CCC2
91. O=C(NCCCN1CCN(c2cccc(Cl)c2)CC1)c1ccc(N2CCCS2(=O)=O)cc1
92. O=C(CSc1ncn[nH]1)Nc1cc(Cl)ccc1Cl
93. CCC(C(=O)NCc1ccccc1)N(C(=O)Cn1nnc(-c2cccs2)n1)c1ccccc1OC (configuration not stated)
94. COc1cccc(C(=O)Nc2ccc3nc(SCC(=O)N4CCc5ccccc54)sc3c2)c1
95. COc1ccc(CCC(=O)NCCc2csc(-c3ccc(F)cc3)n2)cc1

assay / entry,89,90,91,92,93,94,95
HCMV UL50-53 inh,11,-19,-31,-40,3,3,·
GIV Gai3 FP,·,100,97,·,103,98,102
Sa growth inh,120,101,99,137,108,118,103
Sa growth inh second temp,105,87,68,85,106,95,91
